# Screening data as filed in PubChem BioAssay.
# HSD17B inh: qHTS Assay for Inhibitors of HSD17B4, hydroxysteroid (17-beta) dehydrogenase 4. 3-hydroxyacyl-CoA dehydrogenase type-2 (Homo sapiens), Q99714. recombinant HSD17B10, NADH fluorescence kinetic; many of its hits are not listed in these tables. Potency, µM (titrated, usually from 57.1 µM), inactives show at the highest dose activity change, negative = inhibition, usual class: inhibitors. 75,000 tested, 7.6% active; active = well fitted inhibition curve with a large enough effect; inconclusive = small, poorly fitted or top-dose-only effect; inactive = no such curve, though single readings can be large or run the other way;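 note: the protocol describes HADH2 (HSD17B10) and not the HSD17B4 of the title; nearly all actives have a fitted effect of over 70% in size; most hits overshoot -100% by far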
#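 20 nM HADH2, pH 9.0 Tris/Tween; cpd preinc 15 min RT; start w/ 1 mM NAD+ + 90 uM b-hydroxybutyryl-CoA; kinetic fluor ex360/em450 q30s x 4 min; delta last-first.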
# An asterisk follows results filed as active; ? = inconclusive; [ ] = remark or other dose. % is set by controls: 0 for no effect and ±100 for the full control effect; potency is the fitted concentration of half-maximal effect. An excerpt; the hit share may differ from the screen's.
no.	canonical_smiles	HSD17B inh
1	CC(=NCCC1=CCCCC1)c1c(O)[nH]c(=O)[nH]c1=O	-2.8%
2	CCC(C)N1C(=O)NC(=O)C2(Cc3cc(C)ccc3N(C)C2)C1=O (stereo not drawn)	2.0%
3	Cc1ccc2cccc(OC(=O)N3CCCC3)c2n1	-5.3%
4	CC[C@@H]1CN2CCc3cc(OC)c(OC)cc3[C@H]2C[C@@H]1C[C@@H]1NCCc2cc(O)c(OC)cc21	2.1%[25.6 µM]
5	CNC(=O)[C@@H]1C[C@H]1[C@@H](NP(=O)(c1ccccc1)c1ccccc1)c1ccccc1	3.7%
6	NCCc1ccc(S(=O)(=O)F)cc1	4.9%
7	CCN(CC)c1ccc(CC2C(=O)N(C)C(=O)N(C)C2=O)cc1	-6.9%
8	O=C(c1cnccn1)N1CCC2(CC1)CN(Cc1ccncc1)C2	3.7%
9	CCN1C[C@@]2(COC(=O)c3ccccc3N3C(=O)CC(C)C3=O)CC[C@H](OC)[C@]34C5C[C@@H]6[C@@H](OC)C[C@@](O)(C5[C@H]6OC)[C@@](O)(C13)[C@@H](OC)C24 (stereo partly drawn)	32.7%[activator]
10	Cc1ccc2nc(-c3ccncc3)cc(C(=O)N3CCC4(CC3)OCCO4)c2c1	-29.7%
11	c1cncc(CNCCN2CCNCC2)c1	2.0%[11.4 µM]
12	C[C@H](N)CN1CCc2ccc(Br)cc21	-7.0%
13	CCOC(=O)C(O)(c1ccc(NC(=O)c2ccco2)c(OC)c1)C(F)(F)F (stereo not drawn)	-1.8%
14	CC(C)(C)NCC(O)c1ccccc1Cl (stereo not drawn)	0.6%
15	Cc1nn(-c2ccccc2)c(Cl)c1C1C(C#N)=C(N)Oc2c1c(=O)oc1ccccc21 (stereo not drawn)	5.3%
16	Cc1nn(CCC#N)c2c1P(=S)(N1CCCC1)OC(c1ccc(F)cc1)=N2 (stereo not drawn)	?
17	CCC(=O)N1CCN(c2cc3c(cc2F)c(=O)c(C(=O)O)cn3CC)CC1	25.1µM*
18	O=S(=O)(Cl)c1ccccc1	31.6µM*
19	C=C(C)C1CNC(C(=O)O)C1CC(=O)O (stereo not drawn)	0.9%
20	CCCCCP(=O)(O)c1ccccc1	1.9%
21	Cc1ccc(S(=O)(=O)NC(CC(=O)N2CCC3(CC2)OCCO3)c2ccco2)cc1 (stereo not drawn)	9.8%
22	CC(C)NS(=O)(=O)c1ccc(OCC(=O)N2CCN(C)CC2)cc1	4.9%
23	CN1CCC(n2nccc2N)CC1	15.4%
24	COC[C@H]1OC(=O)c2coc3c2[C@@]1(C)C1=C(C3=O)[C@H]2CCC(=O)[C@@]2(C)C[C@H]1OC(C)=O	?
25	COCCOC(=O)C1=C(N)Oc2c(c(=O)oc3ccccc23)C1c1ccncc1 (stereo not drawn)	9.2%
26	Cc1ccc2c(c1)C(c1ccccc1)NCC(=O)N2 (stereo not drawn)	7.8%
27	CCCCOCC1CO1 (stereo not drawn)	8.0%
28	C[C@H]1C(=O)O[C@H]2CCN3CC=C(COC(=O)[C@](C)(O)[C@@]1(C)O)C23 (stereo partly drawn)	27.7%
29	Oc1ccc(Cl)cc1Sc1cc(Cl)ccc1O	3.16µM*
30	COc1cc2c(cc1O)C[C@H]1c3c(cc(OC)c(O)c3-2)CCN1C	31.6µM*

# By substructure, the entries above containing a cyano group.
no.	canonical_smiles	HSD17B inh
15	Cc1nn(-c2ccccc2)c(Cl)c1C1C(C#N)=C(N)Oc2c1c(=O)oc1ccccc21 (stereo not drawn)	5.3%
16	Cc1nn(CCC#N)c2c1P(=S)(N1CCCC1)OC(c1ccc(F)cc1)=N2 (stereo not drawn)	?

# More structures.
no.	canonical_smiles	HSD17B inh
31	CCOC(=O)N(c1ccccc1)P1(=S)OCCO1	?
32	CC1(C)N=C(N)N=C(N)N1c1cccc(C(=O)Nc2ccc(S(=O)(=O)F)cc2)c1	-1.3%[11.4 µM]
33	CN1CCN(c2ccc(C(N)=O)cc2N)CC1	31.6µM*
34	C[C@@]12CC[C@H](O)C[C@@H]1CC[C@@H]1[C@@H]2CC[C@@]2(C)[C@@H](C3=CC(=O)OC3)[C@H](O)C[C@]12O	5.6%[11.4 µM]
35	CCOc1cc(C=O)ccc1O	-6.3%
36	CCOC(=O)C1SC2(C(F)(F)F)CC1(O)c1c(C)cc(C)nc1O2 (stereo not drawn)	0.8%
37	CC(C)c1ccc(O)c(CN2CCN(c3ccccc3)CC2)c1	18.1%
38	Cc1ccc2c(c1)CC1(CN2C)C(=O)NC(=O)N(c2cc(C)ccc2C)C1=O (stereo not drawn)	-1.8%
39	OCC1(CO)COC(c2cccnc2)N1 (stereo not drawn)	2.6%
40	CC1N(O)C2CCCCCC2N1O (stereo not drawn)	3.4%
41	C[C@H](CC(C#N)(c1ccccc1)c1ccccc1)N1CCCCC1	13.1%[11.4 µM]
42	COc1ccc(CCn2c(O)c(C=NC3CC3)c(=O)[nH]c2=O)cc1OC	3.2%
43	Cc1cccc(C#N)c1	3.1%
44	Cc1ccc(OP(=O)(Oc2ccc(C)cc2)N2C=Cc3ccccc3[C@H]2C#N)cc1	7.5%[11.4 µM]
45	C=C1C/C(=C/C)C(=O)O[C@@H]2CCN3CC=C(COC(=O)[C@]1(C)O)[C@@H]23	-7.7%
46	CN1CCN(C(=O)OC2c3nccnc3C(=O)N2c2ccc(Cl)cn2)CC1 (stereo not drawn)	-18.0%
47	OC12Oc3ccccc3C=C1N1CCC2CC1 (stereo not drawn)	5.9%
48	CCOc1ccc(-n2c(O)c(C=NCCN(CC)CC)c(=O)[nH]c2=O)cc1	6.5%
49	CN1C(=O)C(Cc2c[nH]c3ccccc23)C(=O)N(C)C1=O	-22.6%
50	CC(=O)/C=C/c1ccccc1	0.2%
51	CC(C)c1ccc(OCC(=O)N2CCN(C)CC2)c(Br)c1	-3.0%
52	COc1ccc(OCC(=O)N2CCN(Cc3c[nH]c4ccccc34)CC2)cc1	4.4%
53	C[C@]12CCC3C(CC[C@]4(O)CC(O)CC[C@@]34C=O)[C@]1(O)CCC2C1=CC(=O)OC1 (stereo partly drawn)	-1.9%
54	CC1CN(O)C2CCc3nonc3C12O (stereo not drawn)	-1.2%
55	c1ccc(N2CC[C@@]3(CCCNC3)C2)nc1	31.6µM*
56	CC1CCCC(C2(O)C(=O)Nc3ccccc32)C1=O (stereo not drawn)	?
57	CN1CC[C@@]2(CCCN(C(=O)c3ccco3)C2)C1	-4.6%
58	CCCCOCCOP(=O)(OCCOCCCC)OCCOCCCC	4.8%
59	CC1(C)S[C@H]2[C@@H](N)C(=O)N2[C@H]1C(=O)O	7.3%
60	Cc1ccc2c(C)cccc2c1	0.1%
61	c1ccc(CCN2CCCCCC2)nc1	7.2%[11.4 µM]
62	O=C(COc1ccccc1)N1CCN(Cc2c[nH]c3ccccc23)CC1	7.8%
63	Oc1ccc(CCNCc2cc3c(cc2Br)OCO3)cc1	4.8%[11.4 µM]
64	Cn1c[n+](C)cc1C(O)c1ccccc1 (stereo not drawn)	6.8%
65	O=[N+]([O-])c1ccccc1CCl	-2.6%
66	O=C(NC(Cc1ccccc1)C(=O)N1CCC2(CC1)OCCO2)C1CCCCC1 (stereo not drawn)	4.0%
67	COC(=O)CC1=C(C(=O)OC)C2(C(=O)N(C)c3ccccc32)C(C#N)=C(N)O1 (stereo not drawn)	13.6%
68	OCC1OC(n2cnc3cc(Cl)c(Cl)cc32)C(O)C1O (stereo not drawn)	-7.4%
69	c1ccc2nc(N3CCNCC3)ccc2c1	?
70	O=C1NC(=O)C(CCc2ccncc2)(C2CCCCC2)C(=O)N1	8.8%
71	CCOC(=O)C1=C(N)Oc2cc(C)oc(=O)c2C12C(=O)N1c3c(cccc32)C(C)CC1(C)C (stereo not drawn)	1.0%
72	O=C1CC(N2CC=C(c3ccccc3)CC2)C(=O)N1c1ccc(F)cc1 (stereo not drawn)	-20.7%
73	COC(=O)C(C)Oc1cc(C)cc2oc(=O)c3c(c12)CCCC3 (stereo not drawn)	25.1µM*
74	O=C(NCc1cccnc1)NC1CCCCC1	6.4%
75	Oc1ccccc1Cl	4.5%
76	C[C@H](CCC(=O)O)[C@H]1CC[C@@H]2[C@H]3CC[C@H]4C[C@H](O)CC[C@@]4(C)[C@@H]3CC[C@@]21C	-3.0%[11.4 µM]
77	CC1CCC(NC(=O)c2cc3c(=O)n(C)c4ccccc4c3n2C)CC1 (stereo not drawn)	?
78	C[C@@H](Cc1ccc(Cl)cc1Cl)NO	0.6%[11.4 µM]
79	N#CSCSC#N	?
80	Cc1ccccc1N1C(=O)CC(=O)NC1=O	-21.2%
81	CCOC(=O)C1=C(C)OC(N)=C(C(=O)OCC)C12C(=O)Nc1ccc(Br)cc12 (stereo not drawn)	-4.5%
82	Oc1ccc([C@H](O)[C@@H]2CCCCN2)cc1O	12.2%[11.4 µM]
83	NCC#Cc1ccccc1	-3.9%
84	CC(C)(C)c1ccc(O)c(CN2CCN(c3ccccc3)CC2)c1	7.5%
85	O=c1[nH]c(=O)n(CCC2=CCCCC2)c(O)c1C=NCCN1CCNCC1	10.2%
86	Clc1cc(Cl)c(-c2cc(Cl)c(Cl)cc2Cl)cc1Cl	2.6%
87	Cn1ccnc1P(=S)(c1nccn1C)c1nccn1C	1.2%
88	CCCCn1c(O)c(C(C)=NC(Cc2c[nH]c3ccccc23)C(=O)OC)c(=O)[nH]c1=O (stereo not drawn)	4.8%
89	CCCCOc1ccc(CN2CCN(CCO)CC2)cc1	-4.7%
90	CC(=NCC1CCCO1)c1c(O)n(C)c(=O)n(C)c1=O (stereo not drawn)	1.3%

# The listing continues:
no.	canonical_smiles	HSD17B inh
91	O=C(Nc1cccc(F)c1)N1CC[C@@]2(CCCN(C(=O)Oc3ccccc3)C2)C1	0.2%
92	CC(=O)OC1CC(OC(C)=O)[C@]2(C)C(CC(OC(C)=O)[C@]3(C)C2CC[C@@]2(C)C(c4ccoc4)C[C@H]4O[C@]432)C1(C)C (stereo partly drawn)	10.5%
93	C#CCO	-4.3%
94	O=C(C1CCC(=O)N1Cc1ccc(F)cc1)N1CCC2(CC1)OCCO2 (stereo not drawn)	9.8%
95	CCCC(C)C1(CC)C(=O)NC(=Nc2ccccc2OC)NC1=O (stereo not drawn)	-4.2%
96	CC12CN3CC(C)(CN(C1)C31CCSCC1)C2=O	1.2%
97	ClCBr	-2.8%
98	O=C(O)[C@@H]1[C@H](C(=O)O)[C@]2(Cl)C(Cl)=C(Cl)[C@@]1(Cl)C2(Cl)Cl	?
99	Cn1c(=O)cc(OCC(=O)N2CCN(C3CCCCC3)CC2)c2ccccc21	0.5%
100	COC(=O)CSC1=NP(=S)(SCC(=O)OC)N2CCCC2=C1C#N (stereo not drawn)	?
101	O=C(c1ccc(Cl)cc1)C12CN3CN(CN(C3)C1)C2	-3.7%
102	Cn1c2ccccc2c2c(C(=O)N3CCC4(CC3)OCCO4)cn(C3CCCCC3)c(=O)c21	25.1µM*
103	CCn1c(=O)cc(SCC(=O)N2CCC3(CC2)OCCO3)c2ccccc21	?
104	c1csc(CN2CCC3(CCNCC3)CC2)n1	2.8%
105	CC(=NCCN1CCOCC1)c1c(O)n(C2CCCCC2)c(=O)[nH]c1=O	-3.7%
106	COc1ccc(OC)c([C@H](O)[C@H](C)N)c1	8.5%[25.6 µM]

# Gathered by group: those above with sulfur.
no.	canonical_smiles	HSD17B inh
6	NCCc1ccc(S(=O)(=O)F)cc1	4.9%
16	Cc1nn(CCC#N)c2c1P(=S)(N1CCCC1)OC(c1ccc(F)cc1)=N2 (stereo not drawn)	?
18	O=S(=O)(Cl)c1ccccc1	31.6µM*
21	Cc1ccc(S(=O)(=O)NC(CC(=O)N2CCC3(CC2)OCCO3)c2ccco2)cc1 (stereo not drawn)	9.8%
22	CC(C)NS(=O)(=O)c1ccc(OCC(=O)N2CCN(C)CC2)cc1	4.9%
29	Oc1ccc(Cl)cc1Sc1cc(Cl)ccc1O	3.16µM*
31	CCOC(=O)N(c1ccccc1)P1(=S)OCCO1	?
32	CC1(C)N=C(N)N=C(N)N1c1cccc(C(=O)Nc2ccc(S(=O)(=O)F)cc2)c1	-1.3%[11.4 µM]
36	CCOC(=O)C1SC2(C(F)(F)F)CC1(O)c1c(C)cc(C)nc1O2 (stereo not drawn)	0.8%
59	CC1(C)S[C@H]2[C@@H](N)C(=O)N2[C@H]1C(=O)O	7.3%
79	N#CSCSC#N	?
87	Cn1ccnc1P(=S)(c1nccn1C)c1nccn1C	1.2%
96	CC12CN3CC(C)(CN(C1)C31CCSCC1)C2=O	1.2%
100	COC(=O)CSC1=NP(=S)(SCC(=O)OC)N2CCCC2=C1C#N (stereo not drawn)	?
103	CCn1c(=O)cc(SCC(=O)N2CCC3(CC2)OCCO3)c2ccccc21	?
104	c1csc(CN2CCC3(CCNCC3)CC2)n1	2.8%
